# Screens as filed in PubChem.
# ClpP mod = qHTS Assay for Activators of ClpP | ATP-dependent Clp protease proteolytic subunit (Bacillus subtilis (strain 168)), P80244 | purified B. subtilis ClpP, FRET peptide cleavage, 20 min | Potency, µM (highest dose often 57.5 µM), for inactives: top-dose activity change, negative = active | actives 1.9% (n = 340,000); active = well fitted falling curve with a large enough effect; inconclusive = small, poorly fitted or top-dose-only effect; inactive = no such curve, though single readings can be large or run the other way; further: potency means the concentration at half of the fitted maximal effect; the source files actives as falling curves though it sought activators and does not explain the sign; nearly all actives have a fitted effect of over 65% in size; many hits overshoot -100%
# Target sequence (P80244 whole entry, looked up): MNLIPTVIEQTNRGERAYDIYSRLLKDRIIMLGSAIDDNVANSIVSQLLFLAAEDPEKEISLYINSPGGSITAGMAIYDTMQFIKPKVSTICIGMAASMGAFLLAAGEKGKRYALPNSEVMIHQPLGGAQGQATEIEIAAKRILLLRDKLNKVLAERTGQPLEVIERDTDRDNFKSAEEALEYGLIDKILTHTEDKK
#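 Buffer: 100 mM Tris/HCl pH8, 100 mM KCl, 0.05% low protease BSA, 2.5% glycerol, 0.01% Tween-20. ClpP 10 microg/mL final; 20 min RT; delta FRET normalized to ADEP and DMSO controls.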
# TRPV1 potentiator = HTS Assay for Compounds that Act as Potentiators of the Vanilloid Receptor 1. Transient receptor potential cation channel subfamily V member 1 (Homo sapiens), Q8NER1. TRPV1-expressing cells, Fluo-8 calcium influx, capsaicin EC20 potentiation; host cell line not named in the record; control for the full effect not named in the record. potentiation, % at 8.33 µM. actives 0.02% (n = 320,000); active means potentiation above 80%; inconclusive means 30% to 80%; inactive means below 30%; further: 0% is about no effect
# Target sequence (Q8NER1 whole entry, looked up): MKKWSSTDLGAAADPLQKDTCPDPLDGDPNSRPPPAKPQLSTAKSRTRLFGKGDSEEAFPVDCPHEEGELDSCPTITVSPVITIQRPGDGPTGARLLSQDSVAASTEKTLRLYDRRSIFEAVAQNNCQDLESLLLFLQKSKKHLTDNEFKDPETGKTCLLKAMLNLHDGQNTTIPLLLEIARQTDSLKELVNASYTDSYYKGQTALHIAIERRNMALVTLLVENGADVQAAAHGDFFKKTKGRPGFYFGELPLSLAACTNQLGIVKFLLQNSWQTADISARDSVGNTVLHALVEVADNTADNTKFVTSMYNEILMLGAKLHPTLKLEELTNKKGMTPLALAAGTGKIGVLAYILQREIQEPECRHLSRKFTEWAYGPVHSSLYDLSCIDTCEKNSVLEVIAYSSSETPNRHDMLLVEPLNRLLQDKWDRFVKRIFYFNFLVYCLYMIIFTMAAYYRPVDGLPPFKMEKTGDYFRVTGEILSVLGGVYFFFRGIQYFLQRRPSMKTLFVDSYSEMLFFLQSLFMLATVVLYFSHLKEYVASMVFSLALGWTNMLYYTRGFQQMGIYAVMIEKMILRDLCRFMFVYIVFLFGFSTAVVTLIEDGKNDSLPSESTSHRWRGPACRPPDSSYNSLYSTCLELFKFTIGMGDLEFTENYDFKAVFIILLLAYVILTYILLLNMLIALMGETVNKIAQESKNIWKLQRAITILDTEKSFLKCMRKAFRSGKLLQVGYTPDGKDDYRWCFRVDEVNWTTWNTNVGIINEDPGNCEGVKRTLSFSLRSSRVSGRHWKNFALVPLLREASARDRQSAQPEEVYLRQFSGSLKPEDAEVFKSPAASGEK
#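 Fluo-8 calcium influx in TRPV1-expressing cells, kinetic read (ex 480/em 520 nm). Compound added and read 3 min for agonist activity, followed by capsaicin at EC20 final and 2 min further read for enhancement.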
# gsp agonist = qHTS for Agonist of gsp, the Etiologic Mutation Responsible for Fibrous Dysplasia/McCune-Albright Syndrome: qHTS; actives 0.13% (n = 340,000); AID 624287, 2012; Potency, µM (highest dose often 76.9 µM), for inactives: at the highest dose activation (cAMP increase), usual class: activators; gsp mutant cells, cAMP HTRF, 30 min; control for the full effect not named in the record; active = well fitted activation curve with a large enough effect; inconclusive = small, poorly fitted or top-dose-only effect, or another doubt; inactive = no such curve, though single readings can be large or run the other way; cell line not stated here;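 further: phosphodiesterase inhibitor Ro 20-1724 added with compounds to block cAMP breakdown; potency means the concentration at half of the fitted maximal effect; nearly all actives have a fitted effect of over 60% in size; about a fifth of the inactives were tested at one dose only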
#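 Cells stably selected in G418 were plated at 2000/well, grown 16-24 hr, then given compounds in DMSO with the PDE inhibitor […] (300 uM solution added) for 30 min at 37C; cAMP was read by HTRF.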
# Menin-MLL FL inh = qHTS Assay for Inhibitors Targeting the Menin-MLL Interaction in MLL Related Leukemias: Competition With Fluorescein Labeled MLL-derived Peptide; Fluorescence polarization, fluorescein-MLL peptide displacement from menin; FP activity change, % at 61.4 µM; 290,000 tested, under 10 active; inconclusive = falling polarisation curve, or a change in total fluorescence; inactive = total fluorescence flat and polarisation flat or rising; no compound was filed as active; the % refers to the polarisation; negative = inhibition;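 further: % of control where 0% means no effect; inhibitors lower the polarisation; unlabelled MLL peptide was the positive control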
# Sfp inh = qHTS Assay for Inhibitors of Bacillus subtilis Sfp phosphopantetheinyl transferase (PPTase) | Potency, µM, inactives show max response, negative = inhibition, most hits filed as inhibitors | Biochemical Sfp PPTase activity, qHTS | 4'-phosphopantetheinyl transferase ffp (Bacillus subtilis), Q9F4F7 | actives 3.5% (n = 310,000) | AID 1490, 2009; active means well fitted inhibition curve with a large enough effect; inconclusive means small, poorly fitted or top-dose-only effect, or another doubt; inactive means no such curve, though single readings can be large or run the other way;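 further: the enzyme is Sfp with the accession as filed and its product quenches rhodamine fluorescence; potency means the concentration at half of the fitted maximal effect; 0% = enzyme reaction without inhibitor and -100% = no enzyme wells; top concentration of the series not given in the record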
#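 Fluorescence-quenching assay: 15 nM Sfp-PPTase preincubated 15 min at room temperature with compound, then 5 uM rhodamine-CoA and 12.5 uM BHQ-2-labelled YbbR peptide added. Fluorescence (ex 525/em 598 nm) read at start and after 30 min; difference gives rate.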
# gsp antagonist = qHTS for Antagonists of gsp, the Etiologic Mutation Responsible for Fibrous Dysplasia/McCune-Albright Syndrome: qHTS | gsp-mutant cells, cAMP HTRF, 30 min; control for the full effect not named in the record | Potency, µM (series often up to 76.9 µM), for inactives: top-dose activity change, negative = inhibition, usual class: inhibitors | actives 0.4% (n = 340,000); active = falling curve of any shape with a large fitted effect; inconclusive = falling curve, mostly with a smaller effect; inactive = flat or rising curve; cell line not stated here;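 further: intracellular cAMP measured with PDE inhibitor Ro 20-1724 present during compound exposure; potency means the concentration at half of the fitted maximal effect; on the % scale 0 is the no-effect control and ±100 the full control effect; nearly all actives have a fitted effect of over 65% in size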
#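 HTRF cAMP read-out (cAMP-d2 plus anti-cAMP antibody-K in lysis buffer, 30 min RT). Before lysis, cells are exposed to compounds with […] for 30 min at 37C in DPBS containing Ca/Mg, BSA and Tween 20.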
# CtBP-E1A blk = qHTS Assay for Inhibitors of the CtBP/E1A Interaction. AID 651724, 2012. activity change, % (no concentration beside the values). actives 0.49% (n = 340,000). CtBP / adenovirus E1A interaction (AlphaScreen). AlphaScreen GST-E1A/His-CtBP binding, 1536-well; stronger effect = lower value; control for the full effect not named in the record; in the data active means activity change below about -65%; inconclusive means about -30% to -65%; inactive means above about -30%; further: on the % scale 0 is the no-effect control and ±100 the full control effect; compound concentration not given in the record
#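 Homogeneous bead-based format: GST-tagged E1A captured on glutathione donor beads, His-tagged CtBP on nickel acceptor beads; compounds precede bead addition by 2 h at 37 °C.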
# Active calls of the source: *; ? = inconclusive; . = no result given; & = joins results of further samples; [ ] = dose if it differs, or a comment.
SMILES,ClpP mod,TRPV1 potentiator,gsp agonist,Menin-MLL FL inh,Sfp inh,gsp antagonist,CtBP-E1A blk
CC(=O)C1C(c2ccc(C)cc2)c2c(noc2C)CC1(C)O (stereo not given),0.1%,-7,-50%[inhibitor],-0.7,1%,4%,11
O=C1c2ccccc2C(=O)N1CCCn1c2ccc(Cl)cc2c2nc3ccccc3nc21,-0.7%,.,17%,.,.,7%,.
Brc1ccccc1-c1nnc(CSc2nncn2-c2ccccc2)o1,-0.3%,5,-3%,0.0,-11%,4%,-1
C#CCN(C#N)c1nc(NCC)nc(NC(C)C)n1,0.6%,-4,-23%,-1.0,13%,37%[activator],59
CC1CCc2sc3ncnc(N4CCOCC4)c3c2C1 (stereo not given),-0.5%,-4,-7%,1.1,16%,4%,3
COc1cc(OC)cc(-c2nc3nc(C)c(CCC(=O)NCC(OC)OC)c(C)n3n2)c1,.,6,-54%[inhibitor],2.2,15%,9%,3
Brc1ccc(CSc2ccc(-c3ccco3)nn2)cc1,.,1,-13%[15.4 µM],0.1,?,7%,10
CC(=O)c1ccc(OCc2cc([N+](=O)[O-])cc3c2OCOC3)cc1,-0.7%,-25,19%[15.4 µM],7.4,-24%,-51%,0
CCOC(=O)Nc1ccc(Oc2ccccc2)cc1,0.1%,-12,?,1.0,23%,7%,15
COc1ccc(Nc2nc3c(C)cccn3c(=O)c2C=NCc2ccccc2)cc1,1.8%,7,5%,-3.0,-9%,-11%,.
O=C1CCC(=O)N1CNc1ccc(Oc2ccccc2)cc1,1.7%,1,10%,-1.7,11%,-7%,-4
Cc1ccc(S(=O)(=O)NCc2ccccn2)c(C)c1,0.4%,1,-23%,-4.2,-4%,2%,12

# Exported with each value named: part of the list above
CC(=O)C1C(c2ccc(C)cc2)c2c(noc2C)CC1(C)O (stereo not given)
  ClpP mod: 0.1%
  TRPV1 potentiator: -7
  gsp agonist: -50%[inhibitor]
  Menin-MLL FL inh: -0.7
  Sfp inh: 1%
  gsp antagonist: 4%
  CtBP-E1A blk: 11

O=C1c2ccccc2C(=O)N1CCCn1c2ccc(Cl)cc2c2nc3ccccc3nc21
  ClpP mod: -0.7%
  TRPV1 potentiator: .
  gsp agonist: 17%
  Menin-MLL FL inh: .
  Sfp inh: .
  gsp antagonist: 7%
  CtBP-E1A blk: .

Brc1ccccc1-c1nnc(CSc2nncn2-c2ccccc2)o1
  ClpP mod: -0.3%
  TRPV1 potentiator: 5
  gsp agonist: -3%
  Menin-MLL FL inh: 0.0
  Sfp inh: -11%
  gsp antagonist: 4%
  CtBP-E1A blk: -1

C#CCN(C#N)c1nc(NCC)nc(NC(C)C)n1
  ClpP mod: 0.6%
  TRPV1 potentiator: -4
  gsp agonist: -23%
  Menin-MLL FL inh: -1.0
  Sfp inh: 13%
  gsp antagonist: 37%[activator]
  CtBP-E1A blk: 59

# The listing continues.
SMILES,ClpP mod,TRPV1 potentiator,gsp agonist,Menin-MLL FL inh,Sfp inh,gsp antagonist,CtBP-E1A blk
O=C(COc1ccc2ccccc2c1)Nc1nnc(-c2ccco2)s1,.,6,7%[15.4 µM],2.5,-1%,-3%,3
Fc1ccccc1-c1nc(NC2CCCC2)c2ccccc2n1,.,25,14%[15.4 µM],4.1,-7%,-20%,0
CCOC(=O)CSc1nnc(Cc2ccccc2)n1-c1cccc(Cl)c1,1.3%,-3,-21%,-1.6,17%,2%,0
CCN(C(=O)C1CCCN1S(=O)(=O)c1ccc2c(c1)n(C)c(=O)c(=O)n2C)c1ccccc1 (stereo not given),-15%,8,8%,-0.2,3%,-9%,6
O=C(CC12CC3CC(CC(C3)C1)C2)Nc1cccc2ncccc12,-1.0%,-7,8%,4.9,13%,-12%,40
CC(=O)c1c(C)n(-c2ccccc2)c2ccc(OCC(N)=O)cc12,.,1,-14%[15.4 µM],-0.2,16%,6%,-17
CCNC(=S)Nc1ccc2ncoc2c1,.,3,?,-0.6,-19%,10%,3
CCOc1ccc(NC(=O)C2CCC(CNc3c(N4CCC(C)CC4)c(=O)c3=O)CC2)cc1 (stereo not given),.,.,4%[15.4 µM],1.3,33%[activator],-1%,4
COCCOC(=O)c1[nH]c2c(c1C)C(=O)CC(c1ccccc1)C2 (stereo not given),-0.7%,-10,-35%[inhibitor],2.1,15%,16%,6
O=C(NCCN1CCN(C(=O)c2ccc([N+](=O)[O-])cc2)CC1)C(=O)Nc1ccc(F)cc1,0.1%,25,26%,.,9%,13%,1
CCN(CC)S(=O)(=O)c1cc(NC(=O)C2CSC3(C)CCC(=O)N23)ccc1C (stereo not given),1.8%,3,15%,.,.,-15%,-8
NS(=O)(=O)c1ccc(CCNC(=O)c2ccc(Cn3c(=O)[nH]c4ccccc4c3=O)cc2)cc1,?,14,?,12,-2%,12%,.
Cc1ccc(S(=O)(=O)N2CCCCC2)cc1C(=O)Nc1ccc(S(=O)(=O)Nc2ncccn2)cc1,-1.5%,2,-10%,0.1,9%,-5%,.
O=C(NNC(=O)c1ccc(F)c(S(=O)(=O)N2CCOCC2)c1)c1ccc([N+](=O)[O-])cc1,0.6%,6,?,.,.,6%,-11
NC(=O)C[C@@H]1NC(=O)c2cc([N+](=O)[O-])cc(F)c2NCCCC[C@@H](C(N)=O)NC(=O)[C@H](CO)NC1=O,.,-13,.,3.9,3%,.,.
CCn1nnnc1SCC(=O)Nc1ccc(OC)cc1,2.0%,3,-12%,-0.6,16%,6%,3
CCOc1ccc(S(=O)(=O)NCCCn2ccnc2)cc1,1.5%,7,?,1.3,16%,-1%,-10
NC(=O)Cn1c(=O)n(CCCC(=O)NC2CCN(Cc3ccccc3)CC2)c(=O)c2ccccc21,-11%,-9,17%,4.4,5%,2%,-8
Cc1noc(C)c1NC(=O)Nc1cccc2c1O[C@@H](CN(C)C(=O)Nc1ccc3c(c1)OCO3)[C@@H](C)CN([C@H](C)CO)C2=O,-0.4%,.,.,.,.,6%,-4
Clc1ccccc1-c1ncc2ccccn12,.,2,6%[15.4 µM],0.1,-57%,-3%,0
Cc1ccc(CNC(=O)c2cn(C)c3ccc(S(=O)(=O)N4CCOCC4)cc3c2=O)cc1,-2.0%&-0.9%,-8,?,.,10%,?,2
COc1ccc(C=O)cc1COc1ccc(Cl)cc1[N+](=O)[O-],-2.2%,-1,-4%,-1.0,8%,8%,-12
Cc1ccc(OC2CCN(C(=O)C3CCC(=O)N(C4CC4)C3)CC2)cc1 (stereo not given),0.6%,-5,-7%,.,2%,-8%,-1
Cc1nnc(SCC(=O)Nc2c(Cl)cccc2Cl)n(N)c1=O,-1.6%,-5,-34%,.,.,6%,-15
CC(C)Nc1nnc(SC(C)C(=O)Nc2ccc(Cl)cn2)s1 (stereo not given),-3.0%,10,16%,-4.0,-23%,1%,-4
CCOC(=O)c1ccc(NC(=O)c2nccnc2C(=O)O)cc1,-1.7%,.,-9%,1.9,-26%,9%,-8
C=CCOc1ccc(CN(C)C(=O)c2ccc(CNS(=O)(=O)c3ccc(C)c(C)c3)cc2)cc1,-0.2%,1,-3%,.,.,-31%,2
CC1COc2ccccc2N1S(=O)(=O)c1ccc(Cl)cc1 (stereo not given),.,-1,-28%,-1.6,-22%,-26%,-66*
CCCCCNC(=O)CCc1ccccc1,-0.4%,4,2%,3.5,7%,24%,0
CN(C)C(CNC(=O)c1ccc(Cl)c(S(=O)(=O)N2CCCCCC2)c1)c1ccccc1 (stereo not given),0.2%,-13,-7%,.,.,-4%,2
COc1cc(OC)cc(-c2cc3nc(C)c(CCC(=O)Nc4nc(C)cs4)c(C)n3n2)c1,?,-12,-22%,4.9,5%,-13%,0
Cc1cc(C(=O)COC(=O)[C@H](C)NC(=O)c2ccco2)c(C)n1Cc1ccco1,.,-7,4%[15.4 µM],-0.6,11%,-5%,0
O=C(NC(N1CCOCC1)C(Cl)(Cl)Cl)c1ccccc1Cl (stereo not given),.,-27,23%,-0.2,-7%,20%,-8
O=C(O)c1c2c(nc3ccccc13)/C(=C/c1c(F)cccc1F)CCC2,.,?,1%[15.4 µM],-2.2,21%,-18%,-3
COc1ccc(NC(=O)Nc2ccc3c(c2)OCO3)c(C)c1,-1.2%,16,?,.,4%,?,-1
CC(=O)c1c(C)[nH]c(C(=O)OCc2nnc(-c3ccccc3)o2)c1C,0.8%,-14,-10%,6.7,8%,?,0
O=C(CSc1nnnn1-c1ccc2c(c1)OCCO2)c1cccc2c1OCCO2,2.2%,2,-66%[inhibitor],-0.1,10%,31%[activator],4
COC(=O)CSc1nnc(CNC(=O)c2ccco2)n1-c1ccc(F)cc1,-0.8%,-3,-12%,5.8,8%,-10%,10
Cc1ccccc1-n1nnnc1SC(C)C(=O)Nc1ccc(N2CCN(C)CC2)cc1 (stereo not given),1.3%,-6,-2%,-5.5,12%,-8%,-3
CCN(CC)CCCNc1nc2ccccc2[nH]1,-1.6%,8,-6%,0.6,21%,5%,5
CC(C)(C)NC(=O)CSc1ncnc2c1cnn2-c1ccccc1,-1.1%,1,-37%[inhibitor],5.1,20%,?,.
Cc1ccc(OCCOC(=O)c2c(-c3ccccc3)noc2C)cc1,.,2,-2%[15.4 µM],-7.9,-12%,-6%,33

# Some of the entries so far, bar-delimited.
SMILES | ClpP mod | TRPV1 potentiator | gsp agonist | Menin-MLL FL inh | Sfp inh | gsp antagonist | CtBP-E1A blk
O=C(CSc1nnnn1-c1ccc2c(c1)OCCO2)c1cccc2c1OCCO2 | 2.2% | 2 | -66%[inhibitor] | -0.1 | 10% | 31%[activator] | 4
Cc1ccc(OCCOC(=O)c2c(-c3ccccc3)noc2C)cc1 | . | 2 | -2%[15.4 µM] | -7.9 | -12% | -6% | 33
